Source: PubChem
Tb PYK inh – blocks Trypanosoma brucei pyruvate kinase. TbPYK enzyme, Kinase-Glo Plus ATP luminescence, 45 min. Potency, µM (highest dose often 76.8 µM), without a hit: top-dose activity, negative = inhibition, usual class: inhibitors. AID 624173. 410,000 compounds, 0.12% hits. Q57TT1; note: potency is the fitted concentration of half-maximal effect; nearly all actives have a fitted effect of over 50% in size
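Luminescence from Kinase-Glo Plus, added after a 45-minute room-temperature reaction, served as the end-point read-out. The enzyme and substrate were preincubated with compound before ADP (130 uM final) initiated turnover. Concentration-effect curves came from normalized qHTS data.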
HCV inhibitor – HCV inhibition; Huh7.5.1 HCVcc-Cre infection, luciferase reporter, 44 h; Potency, µM (highest dose often 41.8 µM), for inactives: at the highest dose activity change, negative = inhibition, actives largely listed as inhibitors; 340,000 compounds, 3.4% hits; AID 651820; note: potency is the fitted concentration of half-maximal effect
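HCVcc-Cre virus at an moi near 0.5 was added right after compound to cells cultured 4 h from seeding (1,000 cells/well). Luciferase activity was determined 44 h later, 15 min after substrate addition at RT.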
LmPK inhibitor – LmPK (Leishmania mexicana) enzyme inhibition; Potency, µM (doses to about 57.5 µM), inactives show top-dose activity change, negative = inhibition, most hits filed as inhibitors; purified LmPK, Kinase-Glo ATP luminescence, 1 h; 290,000 compounds, 0.37% hits; Q27686; note: potency is the fitted concentration of half-maximal effect
Target sequence (Q27686 whole entry, looked up): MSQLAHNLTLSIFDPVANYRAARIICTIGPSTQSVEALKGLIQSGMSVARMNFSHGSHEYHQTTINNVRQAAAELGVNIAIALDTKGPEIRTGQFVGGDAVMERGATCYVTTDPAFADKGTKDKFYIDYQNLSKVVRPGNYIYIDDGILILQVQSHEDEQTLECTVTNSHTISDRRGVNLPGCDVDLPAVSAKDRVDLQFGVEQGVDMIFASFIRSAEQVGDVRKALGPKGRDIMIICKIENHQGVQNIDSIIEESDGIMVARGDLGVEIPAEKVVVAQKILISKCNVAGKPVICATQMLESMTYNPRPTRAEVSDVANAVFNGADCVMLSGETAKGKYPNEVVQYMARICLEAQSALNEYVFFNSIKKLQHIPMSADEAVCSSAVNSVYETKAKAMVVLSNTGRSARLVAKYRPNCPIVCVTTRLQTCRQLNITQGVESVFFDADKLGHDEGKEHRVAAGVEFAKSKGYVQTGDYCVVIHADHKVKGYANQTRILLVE
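Kinase-Glo luminescence read after 1 h RT reaction of 0.1 nM LmPK with 0.5 mM PEP and 0.1 mM ADP. Activity scaled between uninhibited and enzyme-free controls.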
HCMV antiviral – human cytomegalovirus inhibition. HFF cells, HCMV-luciferase reporter, 72 h; stronger effect = lower value. activity change, negative = inhibition, % at 57.5 µM. 410,000 compounds, 4.5% hits. AID 1259415; in the data active = activity change below about -60%; inconclusive = no clear call, values can overlap the other calls; inactive = above about -39%
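Human foreskin fibroblasts infected with luciferase-reporter HCMV at MOI 1 PFU/cell, compounds at two doses. Luciferase measured 72 h post infection; normalized to buffer-only basal and Salinomycin (10uM) controls.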
Active calls of the source: *; ? = inconclusive; . = no result given; & = joins results of further samples. Unless noted, calls come from the whole dose curve; as a rule, active = well fitted curve in the direction sought with a large enough effect; inconclusive = small, poorly fitted or top-dose-only effect, or another doubt; inactive = no such curve, though single readings can be large; an effect the other way counts as inactive or inconclusive. % is set by controls: 0 for no effect and ±100 for the full control effect. Not all compounds are listed (hit frequency here may not be typical).

SMILES | Tb PYK inh | HCV inhibitor | LmPK inhibitor | HCMV antiviral
Cn1ccnc1SCC(=O)n1c2c(c3ccccc31)CCCC2 | 1% | 13% | 3% | 21
CC(=O)N1CCN(c2ccc(OC[C@@H]3CO[C@@](Cn4ccnc4)(c4ccc(Cl)cc4Cl)O3)cc2)CC1 | 3% | . | . | .
NC12CN3CN(CN(C3)C1)C2 (tested in a mixture with another compound) | -9% | 3% | -5% | 28
O=C(O)C1CC1C(=O)Nc1cc(F)ccc1F (centres undefined) | 0% | 14% | -3% | -38
CCN1CCN(C(=O)c2ccc(NS(=O)(=O)c3ccccc3)cc2)CC1 | -1% | . | 1% | .
COc1ccc(NC(=O)CSc2nnc(-c3ccccn3)n2N)cc1 | 11% | 10% | 0% | -11
NCCc1nc(-c2ccccc2)cs1 | 3% | -8% | -14% | -18
O=c1[nH]cnc2c1ncn2C1CCC(CO)O1 (centres undefined) | 3% | . | . | -29
Cc1ccc(CNc2ccc(Cl)cc2[N+](=O)[O-])cc1 | -15% | 7% | -6% | 39
COc1ccc2c3c1OC1C(=O)CC[C@@]4(O)[C@@H](C2)N(C)CC[C@]314 (some centres undefined) | 3% | ? | . | -80*
Cc1ccc(CN2CCN(C(=O)c3cccc4ccccc34)CC2)cc1 | -5% | ? | 1% | -4
N=C(N)c1ccc(/C=C/c2ccc(C(=N)N)cc2O)cc1 | 3%&-3% | 24% | 1% | -35
O=c1c2ccccc2nc2n1CC/C2=C/N1CCN(c2cccc(C(F)(F)F)c2)CC1 | -8% | 1% | 1% | .

Ordered by number of heavy atoms (high to low): 10 of the compounds above
SMILES | Tb PYK inh | HCV inhibitor | LmPK inhibitor | HCMV antiviral
CC(=O)N1CCN(c2ccc(OC[C@@H]3CO[C@@](Cn4ccnc4)(c4ccc(Cl)cc4Cl)O3)cc2)CC1 | 3% | . | . | .
O=c1c2ccccc2nc2n1CC/C2=C/N1CCN(c2cccc(C(F)(F)F)c2)CC1 | -8% | 1% | 1% | .
Cc1ccc(CN2CCN(C(=O)c3cccc4ccccc34)CC2)cc1 | -5% | ? | 1% | -4
COc1ccc(NC(=O)CSc2nnc(-c3ccccn3)n2N)cc1 | 11% | 10% | 0% | -11
Cn1ccnc1SCC(=O)n1c2c(c3ccccc31)CCCC2 | 1% | 13% | 3% | 21
N=C(N)c1ccc(/C=C/c2ccc(C(=N)N)cc2O)cc1 | 3%&-3% | 24% | 1% | -35
Cc1ccc(CNc2ccc(Cl)cc2[N+](=O)[O-])cc1 | -15% | 7% | -6% | 39
O=c1[nH]cnc2c1ncn2C1CCC(CO)O1 (centres undefined) | 3% | . | . | -29
NCCc1nc(-c2ccccc2)cs1 | 3% | -8% | -14% | -18
NC12CN3CN(CN(C3)C1)C2 (tested in a mixture with another compound) | -9% | 3% | -5% | 28
